TRPML1 agonist = human mucolipin-1 channel agonism | 0.12% of 410,000 active | TRPML1-expressing cells, Ca2+ dye fluorescence, FDSS; host cell line not named in the record; reference of the full effect not given here | Q9GZU1 | activation, % (test concentration not listed); in the data active = activation above about 50%; inconclusive = about 30% to 50%; inactive = below about 30%; also: 0% is about no effect; the text of the record puts the active cut at 80%
Target sequence (Q9GZU1 whole entry, looked up): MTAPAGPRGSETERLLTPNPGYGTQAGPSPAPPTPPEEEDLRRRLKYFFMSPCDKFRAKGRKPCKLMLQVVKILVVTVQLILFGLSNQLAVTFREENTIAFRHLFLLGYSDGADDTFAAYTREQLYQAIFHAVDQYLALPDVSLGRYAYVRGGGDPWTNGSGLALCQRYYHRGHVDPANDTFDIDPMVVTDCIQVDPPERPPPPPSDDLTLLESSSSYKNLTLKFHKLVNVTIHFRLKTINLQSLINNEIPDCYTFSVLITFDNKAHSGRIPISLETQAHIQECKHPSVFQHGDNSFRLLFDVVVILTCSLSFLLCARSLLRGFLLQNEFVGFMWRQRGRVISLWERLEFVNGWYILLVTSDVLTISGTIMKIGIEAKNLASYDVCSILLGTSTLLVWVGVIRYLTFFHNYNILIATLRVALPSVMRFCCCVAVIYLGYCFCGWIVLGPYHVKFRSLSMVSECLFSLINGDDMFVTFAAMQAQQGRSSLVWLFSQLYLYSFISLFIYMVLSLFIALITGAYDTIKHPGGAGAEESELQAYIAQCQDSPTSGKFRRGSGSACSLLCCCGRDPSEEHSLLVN
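In this qHTS format, compounds were pin-transferred onto Ca8-dye-loaded TRPML1-DL cells induced with Tet overnight, and intracellular Ca2+ fluorescence was recorded kinetically for 110 s after a 10 s baseline. A subsequent 4uM final 54-4 (EC80) addition followed by a second 110 s read served as the antagonist phase.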
PINK1 modulator = modulators of PINK1 expression | Potency, µM (highest dose often 76.6 µM), for the others: at the highest dose activation (PINK1 increase), hits mostly activators | AID 624263 | 0.2% of 410,000 active | PINK1 immunofluorescence, high-content cytometry, 24 h; active = well fitted activation curve with a large enough effect; inconclusive = small, poorly fitted or top-dose-only effect; inactive = flat fitted curve, though single readings scatter; cell line not stated here;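 also: potency is read from the fitted curve at half-maximal effect; % of control where 0% means no effect; nearly all actives have a fitted effect of over 65% in size; a mitochondrial uncoupler was the plate control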
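A stable cell line was treated with compounds at 5 concentrations for 24 hours, with CCCP as control. PINK1 levels and mitochondrial localization were measured by immunofluorescence with mitochondrial, cell and nuclear markers after fixation, read by laser-scanning cytometry.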
* marks the source's active call; other numbers are inactive results; u = inconclusive; x = not tested or not shown. Not all compounds are listed (hit frequency here may not be typical).

1: Cc1nc2ccccn2c1P(=S)(c1ccccc1)c1ccccc1
2: CCNc1nc(Cl)nc(NCC)n1
3: c1ccc(N2CCCC3(CCNCC3)C2)nc1
4: COC(=O)N1CCC2(CCCN(C)C2)CC1
5: CC1CC2CC(=O)C3CCCN4CCCC2[C@]34C1 (stereo partly specified)
6: O=C(Oc1ccccc1)N1CCC[C@@]2(CCN(C(c3ccccc3)c3ccccc3)C2)C1
7: CC(C)N1C(=O)c2ccccc2NS1(=O)=O
8: Oc1ccc(-c2cccnc2)cc1CNC1CN2CCC1CC2 (stereo unspecified)
9: O=C(Nc1cccc(F)c1)N1CC2(CCNCC2)C1
10: COc1ccccc1CN1CCCC2(CCN(C(=O)Oc3ccccc3)CC2)C1

screen / no.,1,2,3,4,5,6,7,8,9,10
TRPML1 agonist,x,x,x,x,x,x,x,x,x,x
PINK1 modulator,2.7%,1.3%,-0.5%,-0.6%,-1.0%,1.8%,-0.9%,0.0%,-0.8%,0.6%

11: COC(=O)/C(C)=C\CC12OC(C)(C)C3CC(C=C4C(=O)c5c(OC)c6c(c(CC=C(C)C)c5OC431)OC(C)(CCC=C(C)C)C=C6)C2=O (stereo unspecified)
12: c1ccc(N2CCCC3(CCNCC3)C2)cc1
13: CCc1nn2c(=O)c(F)c(N3CCNCC3)nc2s1
14: O=C(Oc1ccccc1)N1CCC2(CC1)CN(Cc1ccncc1)C2
15: C[C@@]12C=CC(=O)C=C1CCC1C2CC[C@]2(C)C(=O)CCC12 (stereo partly specified)
16: CN1Cc2c(ccc3c2OCO3)C2C(O)Cc3cc4c(cc3C21)OCO4 (stereo unspecified)
17: CC(C)NC(=O)N1CC[C@@]2(CCCNC2)C1
18: CC(C)CN1CCC2(CC1)CCN(C(=O)Oc1ccccc1)CC2
19: CNCC(O)c1cc(F)c(OCc2ccccc2)c(OCc2ccccc2)c1F (stereo unspecified)
20: ClC1=C(Cl)C2(Cl)C3C4CC(C5OC45)C3C1(Cl)C2(Cl)Cl (stereo unspecified)

screen / no.,11,12,13,14,15,16,17,18,19,20
TRPML1 agonist,x,x,x,x,x,x,x,x,x,x
PINK1 modulator,-2.0%,0.1%,-0.4%,-0.4%,0.6%,5.2%,0.1%,0.0%,-1.9%,1.7%

21: CN1CCCC2(CCN(C(=O)c3csnn3)CC2)C1
22: COc1cc2c(c(OC)c1OC)-c1ccc(C(=O)O)cc1[C@@H](NC(C)=O)CC2
23: CC(=O)OC1C(=O)[C@]2(C)C(O)CC3OC[C@]3(OC(C)=O)C2[C@@H](OC(=O)c2ccccc2)[C@]2(O)CC(O)C(C)=C1C2(C)C (stereo partly specified)
24: CCC1/C=C/C=CCC(C)C(O)[C@@](C)(O)C(=O)C(C)C(O)C(C)C(=O)C(C)C(O)C(C)C=CC(=O)O[C@H]2C(C)C(CC1)O[C@]1(CCC(C)C(CC(C)O)O1)C2C (stereo partly specified)
25: CCOP(=S)(OCC)SCn1c(=O)oc2cc(Cl)ccc21
26: COc1ccc2c(c1)[C@]13CCCCC1C(C2)N(C)CC3 (stereo partly specified)
27: c1csc(CN2CCCC3(CCNCC3)C2)n1
28: O=C(O)CNCP(=O)(O)O
29: c1cc(CN2CCCC3(CCNCC3)C2)ccn1
30: CCS(=O)CCSP(=O)(OC)OC (stereo unspecified)

screen / no.,21,22,23,24,25,26,27,28,29,30
TRPML1 agonist,x,x,x,x,x,x,x,x,x,x
PINK1 modulator,0.1%,6.6%,7.2%,-0.5%,2.8%,0.8%,0.9%,-0.1%,-0.1%,-0.7%

An excerpt from above in order of molar mass, rising.
7: CC(C)N1C(=O)c2ccccc2NS1(=O)=O
15: C[C@@]12C=CC(=O)C=C1CCC1C2CC[C@]2(C)C(=O)CCC12 (stereo partly specified)
18: CC(C)CN1CCC2(CC1)CCN(C(=O)Oc1ccccc1)CC2
14: O=C(Oc1ccccc1)N1CCC2(CC1)CN(Cc1ccncc1)C2
6: O=C(Oc1ccccc1)N1CCC[C@@]2(CCN(C(c3ccccc3)c3ccccc3)C2)C1

screen / no.,7,15,18,14,6
TRPML1 agonist,x,x,x,x,x
PINK1 modulator,-0.9%,0.6%,0.0%,-0.4%,1.8%

More compounds.
31: c1ccc(N2CCN(c3ccccc3)CC2)cc1
32: NCC(=O)c1ccc(Br)cc1
33: O=P1(Oc2ccccc2)CC=CC(COC(c2ccccc2)(c2ccccc2)c2ccccc2)O1 (stereo unspecified)
34: O=C1/C(=C/c2ccc(N(CCCl)CCCl)cc2)Cc2ccccc21
35: O=C(O)[C@@H]1C[C@H]2C[C@@H](CP(=O)(O)O)CC[C@H]2CN1
36: C[C@@H](C1CC[C@@]2(O)C3=CC(=O)[C@@H]4C[C@@H](O)[C@@H](O)C[C@]4(C)[C@H]3CC[C@]12C)[C@H](O)CCC(C)(C)O (stereo partly specified)
37: O=C(O)c1cc[c]([Sb](=[O])([OH])[OH])cc1[N+](=O)[O-]
38: Cc1oc(-c2ccc(Cl)cc2)nc1CN1C(=O)CN=C(c2ccccc2)c2cc(Cl)ccc21
39: Cc1cccc(-n2c(/C=C\c3cccc(Br)c3)nc3ccccc3c2=O)c1
40: CCCCc1nc2ccccc2c(=O)n1-c1cccc(OC)c1

screen / no.,31,32,33,34,35,36,37,38,39,40
TRPML1 agonist,0.3,0.3,1.4,73*,0.6,0.7,-0.3,0.3,1.8,0.9
PINK1 modulator,x,x,x,x,x,x,1.0%,0.7%,0.8%,1.5%

The closing two records of the part before open the next one.
39: Cc1cccc(-n2c(/C=C\c3cccc(Br)c3)nc3ccccc3c2=O)c1
40: CCCCc1nc2ccccc2c(=O)n1-c1cccc(OC)c1
41: C=Cc1ccc(Cn2c(C)c(CNCCc3cc(OC)ccc3OC)c(C(=O)O)c2C)cc1
42: NCC(=O)c1ccc2ccccc2c1
43: Cc1ccc(NC(=O)Cn2cc(C(=O)c3ccccc3)c3ccccc32)c(C)c1
44: CCCC1=Nc2cc(C(=O)NCCCN(CC)CC)ccc2Sc2ccccc21
45: O=C(Oc1ccc([N+](=O)[O-])cc1)N1CCN(/[N+]([O-])=N/Oc2ccc([N+](=O)[O-])cc2[N+](=O)[O-])CC1
46: CCCc1ccc(OCC(=O)Nc2ccc(Cl)cc2C(=O)c2ccccc2)cc1
47: CC(=O)Cc1c[nH]c2ccccc12
48: Cc1ccc(-c2nc(CN3C(=O)CN=C(c4ccccc4)c4cc(Cl)ccc43)c(C)o2)cc1
49: CCOc1ccc(CN2C(=O)c3ccccc3Sc3ccc(C(=O)N4CCC5(CC4)OCCO5)cc32)cc1
50: COc1ccc(-n2c(/C=C/c3cccc(F)c3)nc3ccccc3c2=O)cc1Cl

screen / no.,39,40,41,42,43,44,45,46,47,48,49,50
TRPML1 agonist,1.8,0.9,1.8,0.0,2.7,0.1,1.1,2.2,-0.2,-0.3,-0.2,0.1
PINK1 modulator,0.8%,1.5%,5.7%,0.4%,-0.5%,6.0%,-1.1%,1.8%,-0.5%,0.2%,1.3%,0.8%

In the list so far, 5 have a COOH group:
22: COc1cc2c(c(OC)c1OC)-c1ccc(C(=O)O)cc1[C@@H](NC(C)=O)CC2
28: O=C(O)CNCP(=O)(O)O
35: O=C(O)[C@@H]1C[C@H]2C[C@@H](CP(=O)(O)O)CC[C@H]2CN1
37: O=C(O)c1cc[c]([Sb](=[O])([OH])[OH])cc1[N+](=O)[O-]
41: C=Cc1ccc(Cn2c(C)c(CNCCc3cc(OC)ccc3OC)c(C(=O)O)c2C)cc1

screen / no.,22,28,35,37,41
TRPML1 agonist,x,x,0.6,-0.3,1.8
PINK1 modulator,6.6%,-0.1%,x,1.0%,5.7%

Next compounds follow.
51: COc1ccc(-c2nn3c(=O)cc(CN4CCN(C(=O)COc5ccc(F)cc5)CC4)nc3s2)cc1
52: O=C(COc1ccccc1[N+](=O)[O-])N1CCN(CCc2ccccn2)CC1
53: CCC(=O)Nc1ccccc1-c1nc2ccccc2n(C(CC)C(=O)Nc2cccc(Cl)c2)c1=O (stereo unspecified)
54: [O]=[Sb]([OH])([OH])[c]1ccccc1
55: COc1cccc(-n2c(/C=C/c3cccc(C)c3)nc3ccccc3c2=O)c1
56: Cc1cc(C)cc(-n2c(=O)[nH]c3ccccc3c2=O)c1
57: Cc1ccc(-n2c(/C=C/c3cccc4ccccc34)nc3ccccc3c2=O)cc1
58: O=c1[nH]c2ccccc2c(=O)n1-c1ccc(Cl)c(Cl)c1
59: CCOc1ccccc1CN(CCc1ccc2c(c1)OCO2)Cc1ccc(CC)cc1
60: Cc1ccccc1-c1nn2c(=O)cc(CN3CCN(C(=O)COc4ccccc4Cl)CC3)nc2s1

screen / no.,51,52,53,54,55,56,57,58,59,60
TRPML1 agonist,-0.4,0.0,2.4,0.0,0.6,-0.2,1.1,-0.2,1.0,-0.7
PINK1 modulator,2.3%,0.0%,u,0.5%,4.1%,0.8%,0.3%,-1.2%,17%,-0.4%

Exported with values under each structure: part of the list above
Values run as follows: TRPML1 agonist | PINK1 modulator
[38] Cc1oc(-c2ccc(Cl)cc2)nc1CN1C(=O)CN=C(c2ccccc2)c2cc(Cl)ccc21
→ 0.3 | 0.7%
[39] Cc1cccc(-n2c(/C=C\c3cccc(Br)c3)nc3ccccc3c2=O)c1
→ 1.8 | 0.8%
[40] CCCCc1nc2ccccc2c(=O)n1-c1cccc(OC)c1
→ 0.9 | 1.5%

(next part)
61: ClCCN(CCCl)c1ccc(/C=C/c2ccnc3ccccc23)cc1
62: O=C1CN=C(c2ccccc2)c2cc(Cl)ccc2N1Cc1ccc(Cl)cc1
63: CCOc1ccc2nc(NC(=O)c3cccn(Cc4ccccc4C)c3=O)sc2c1
64: Cc1ccccc1-n1c(/C=C/c2ccc(O)cc2)nc2ccccc2c1=O
65: CN(C)c1ccc(N=O)cc1
66: Nc1c(C(=O)Nc2cccc(F)c2)sc2nc(-c3cccs3)ccc12
67: COc1ccc(-c2nc(CN3C(=O)CN=C(c4ccccc4Cl)c4cc(Cl)ccc43)c(C)o2)cc1OC
68: CCOc1ccc(CN(CCc2ccc3c(c2)OCO3)Cc2ccc(C)cc2)cc1
69: CCC12CN3CC(CC)(CN(C1)C3c1c(C)[nH]c(=O)[nH]c1=O)C2=O (stereo unspecified)
70: Cc1ccc(NC(=O)N(Cc2ccc3c(c2)OCO3)C2CCN(Cc3ccccc3)CC2)cc1Cl

screen / no.,61,62,63,64,65,66,67,68,69,70
TRPML1 agonist,u,-0.3,1.3,1.0,-0.8,5.1,-1.1,0.0,-0.1,4.2
PINK1 modulator,1.8%,1.2%,0.2%,0.5%,0.2%,u,-1.2%,0.9%,0.0%,12%

71: O=C(CN1C(=O)CN=C(c2ccccc2)c2ccccc21)Nc1cccc(C(F)(F)F)c1
72: O=c1c2ccccc2nc(/C=C\c2ccccc2F)n1-c1ccc(O)cc1
73: CCCCC(=O)Nc1c(C(=O)N2CCN(c3ccccc3F)CC2)oc2ccccc12
74: Cc1cccc(Cn2cccc(C(=O)Nc3cc(C)on3)c2=O)c1
75: NC(Cc1ccc(N(CCCl)CCCl)cc1)C(=O)O (stereo unspecified)
76: CCOC(=O)c1ccc(NC(=O)c2cccn(Cc3ccccc3F)c2=O)cc1
77: CC(=O)NCC(N)C(=O)c1ccc(Cl)c(Cl)c1 (stereo unspecified)
78: Cc1cccc(CN2CC=C(c3noc(CCC(=O)Nc4ccc(C)c(F)c4)n3)CC2)c1
79: O=[N+]([O-])c1cc(C(F)(F)F)c(Cl)c([N+](=O)[O-])c1Nc1ncc(C(F)(F)F)cc1Cl
80: O=C(c1ccc2c(c1)N(Cc1ccc(F)cc1Cl)C(=O)c1ccccc1S2)N1CCC2(CC1)OCCO2
81: CCc1nc(SC)ncc1C(=O)Nc1ccc(Cl)cc1C(=O)c1ccccc1

screen / no.,71,72,73,74,75,76,77,78,79,80,81
TRPML1 agonist,4.8,2.4,0.7,-0.4,-0.4,1.0,-0.6,0.3,29,-0.4,4.0
PINK1 modulator,29%,0.7%,u,0.7%,-0.1%,19%,1.4%,-0.4%,u,0.1%,8.5%

Assay outcomes: PubChem BioAssay, National Center for Advancing Translational Sciences (NCATS)
